HIV Env fusion: inhibitors of HIV-1 Env-driven cell-cell fusion, primary screen, HeLa-JRFL effector, CEM21 target cells, luciferase; AID 651610, 2012; inhibition, % at 12.3 µM; 360,000 tested, 1.1% active;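 active = mean replicate inhibition score of at least 50 and every replicate individually at or above 50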;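 also: 0% = plate neutral controls and 100% = maraviroc near 300 nM; one replicate is shown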
eIF4H FP inh: human eIF4H binding inhibitors, primary screen, translation initiation inhibitor project, biochemical, uHTS, fluorescence polarization. Eukaryotic translation initiation factor 4H (Homo sapiens), Q15056. eIF4H fluorescence polarization binding assay. inhibition, % at 35 µM. 290,000 tested, 0.94% active;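 active = 50% or more with normal probe brightness, or confirmed in later tests; about a fifth of its hits are not listed in these tables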;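 also: calls also rest on retests at 20 µM and on dose response follow-up; 0% = protein and probe with vehicle and 100% = probe without protein; strong numbers were not always called active; many hits fall short of the cut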
MT1-MMP act inh: blockers of MT1-MMP proenzyme processing, primary screen, HT1080 RFP-PRO-GFP cells, GFP/RFP fluorescence; Matrix metalloproteinase-14 (Homo sapiens), P50281; GFP/RFP ratio fluorescence, overnight; percent of plate control window, DMSO zero; GFP/RFP ratio change, % at 20 µM; 360,000 tested, 0.061% active;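 active = GFP/RFP ratio change of at least 30% with cell ATP level not reduced by more than half and red fluorescence within 50% of control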; also: strong numbers were not always called active
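Assay system: RFP-PRO-GFP reporter HT1080 cells; read-out basis: GFP/RFP fluorescence ratio; benchmarks: DMSO wells and RFP-L50D-GFP cells; doses: 20 µM single dose, 1% DMSO; schedule: overnight cell settling, then overnight compound exposure, 37 °C, 5% CO2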
PABP FP inh: PABP poly(A) RNA binding inhibitors, primary screen, biochemical, fluorescence polarization, uHTS. Polyadenylate-binding protein 1 (Homo sapiens), P11940. inhibition, % at 35 µM. 290,000 tested, 1% active;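 active = 50% or more with normal probe brightness, or confirmed in later tests; about a fifth of its hits are not listed in these tables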;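 also: calls also rest on retests at 20 µM and on dose response follow-up; controls were probe without protein and protein plus probe with vehicle; some compounds called inactive have numbers as strong as hits; many hits fall short of the cut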
Target sequence (P11940 whole entry, looked up): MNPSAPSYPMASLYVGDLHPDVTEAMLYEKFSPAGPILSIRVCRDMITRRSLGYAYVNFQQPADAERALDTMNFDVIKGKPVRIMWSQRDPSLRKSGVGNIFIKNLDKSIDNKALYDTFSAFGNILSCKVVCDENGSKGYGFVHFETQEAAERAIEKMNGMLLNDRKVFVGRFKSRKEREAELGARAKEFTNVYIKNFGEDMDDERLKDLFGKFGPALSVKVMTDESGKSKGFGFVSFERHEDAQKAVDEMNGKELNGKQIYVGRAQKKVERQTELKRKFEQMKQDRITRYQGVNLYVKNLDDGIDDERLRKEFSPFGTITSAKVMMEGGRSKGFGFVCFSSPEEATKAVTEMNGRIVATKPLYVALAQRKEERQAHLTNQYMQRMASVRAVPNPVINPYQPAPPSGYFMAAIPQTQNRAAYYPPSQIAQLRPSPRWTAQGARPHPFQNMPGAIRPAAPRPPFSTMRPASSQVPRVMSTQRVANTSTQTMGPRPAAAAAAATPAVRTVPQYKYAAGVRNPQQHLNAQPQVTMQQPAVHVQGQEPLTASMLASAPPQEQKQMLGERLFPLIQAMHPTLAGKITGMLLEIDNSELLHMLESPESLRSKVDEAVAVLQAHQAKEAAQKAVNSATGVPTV
Yeast UUG start: modulators of yeast start codon fidelity, primary screen, whole organism, S. cerevisiae, single point, plate reader. S. cerevisiae UUG-firefly luciferase reporter, luminescence/redox ratio. activity score, % at 18.7 µM. 350,000 tested, 0.13% active;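 active = replicate mean at a twofold rise or more, about +100% in these data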;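 also: firefly luciferase made from a UUG start codon reports start codon fidelity; reporter light over untreated wells divided by growth signal over untreated wells; some hits fall short of that in this replicate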
Rce1 inhib: yeast Rce1p protease inhibitors, primary screen, biochemical, fluorescence, cell-free homogeneous. 290,000 tested, 0.27% active. yeast membranes, quenched prenylated peptide cleavage fluorescence. AID 2563, 2010. calls only;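 active = fall in fluorescence gain of 50% or more versus controls, with final raw signal at or below 3038400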;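 also: plate controls were neutral control wells for no effect and wells lacking membranes for full effect; tested at 10 µM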
CSC inhib: cancer stem cell viability inhibitors, primary screen, luminescence | cancer stem cell-like cells viability | inhibition, % at 7.5 µM | 300,000 tested, 1.1% active | AID 2717, 2010;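 active = mean at 75% or more and at least half the replicates too; tested in HMLE shEcad cells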;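 also: 0% = median of negative and 100% = median of positive control wells; the first replicate is given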
eIF4H FP inh retest: further read-out of eIF4H FP inh, marked with its call; inhibition, %; compound at 20 µM; confirmation average;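 mean of two retest wells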
PABP FP inh retest: second read-out of PABP FP inh, no call of its own (marks repeat the call); inhibition, %; compound at 20 µM; confirmation repeats;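 mean of two retest wells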
MT1-MMP act inh RFP: further read-out of MT1-MMP act inh, marked with its call; RFP signal change, %; measured here: RFP expression control read;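 0 = vehicle wells; hits needed this value within 50% of zero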
* marks the source's active call; other numbers are inactive results; i = inactive; . = not tested or not shown; & = joins results of further samples; [ ] = remark or other dose. A portion of the library; count on the stated rates, not on these rows.

The first three entries as a preview:
SMILES	HIV Env fusion	eIF4H FP inh	MT1-MMP act inh	MT1-MMP act inh RFP	PABP FP inh	Yeast UUG start	Rce1 inhib	CSC inhib	others
CCC1CCC(C(=O)NC(C(=O)NCCc2ccc(S(N)(=O)=O)cc2)C(C)C)CC1 (stereo not given)	-22	-11	3	1	-8	-7	i	-15
CCC(C)CNC(=O)c1cccc(OC2CCN(CC(C)(C)C)CC2)c1 (stereo not given)	-2	.	4	0	.	7	i	11
COc1ccc(/C=C/C=N/NC(=O)COc2ccc(OC)cc2)cc1	15	-2	2	-1	10	.	i	1

All compounds of this part, previewed entries included:
SMILES	HIV Env fusion	eIF4H FP inh	MT1-MMP act inh	MT1-MMP act inh RFP	PABP FP inh	Yeast UUG start	Rce1 inhib	CSC inhib	others
CCC1CCC(C(=O)NC(C(=O)NCCc2ccc(S(N)(=O)=O)cc2)C(C)C)CC1 (stereo not given)	-22	-11	3	1	-8	-7	i	-15
CCC(C)CNC(=O)c1cccc(OC2CCN(CC(C)(C)C)CC2)c1 (stereo not given)	-2	.	4	0	.	7	i	11
COc1ccc(/C=C/C=N/NC(=O)COc2ccc(OC)cc2)cc1	15	-2	2	-1	10	.	i	1
CC(OC(=O)c1ccc2c(=O)n3c(nc2c1)CCCCC3)C(=O)Nc1ccc(F)cc1Cl (stereo not given)	.	-2	6	3	6	.	i	-7
Cc1cccc(/N=C/c2sc3ccccc3c2O)n1	-14	92	6	17	72	-13	i	13	eIF4H FP inh retest=-1;PABP FP inh retest=24
COc1ccccc1-n1nnnc1SCC(=O)NC1CCCCC1	20	-3	0	0	-5	-1	i	-9
O=C(CN1CCN(S(=O)(=O)c2ccc(Br)cc2)CC1)c1ccc(O)c(O)c1	-3	3	-3	-5	-1	0	i	67
Cc1ccccc1N1C(S)=C(C#N)C(=O)NC12CCCCC2	15	-2	-1	5	6	-16	i	-9
CC(C)(C)S(=O)(=O)/C(C#N)=N/Nc1ccc(S(C)(=O)=O)cc1	-9	1	0	-1	-5	.	i	-18
CCOC(=O)C1=C(N)OC2=C(C(=O)CCC2)C1c1ccco1 (stereo not given)	.	4	-5	4	-2	-15	i	-9
COc1ccc(-c2csc(NC(=O)c3ccccc3Br)c2C(=O)O)cc1	12	-2	1	-4	24	-1	i	3
COc1ccc(-c2nc3ccccc3nc2-c2ccccc2)cc1OC	4	8	-4	-4	-3	13	i	-8
O=C(c1ccc(C(F)(F)F)cc1)N1CCC(=O)N(C(CO)Cc2ccccc2)CC1 (stereo not given)	11	.	-3	-1	.	-16	i	-12
CC(C)N1C(=O)CCC1C(=O)N1CCN(c2ccccn2)CC1 (stereo not given)	-5	-6	0	6	-2	-30	i	-4
Cc1ccccc1N=Cc1ccc[nH]1	5	.	0	2	.	-2	.	.
CC(=O)Nc1cccc(C(=O)OCC(=O)N2CCC(c3ccccc3)=N2)c1	-14	.	-1	4	.	-8	i	-9
COc1ccccc1NC(=O)Cc1noc(CSc2nnc(C)n2C)n1	12	-13	-4	3	-12	.	i	1
Nc1nonc1-n1nnc(C(=O)N/N=C/c2ccoc2)c1CSc1ccc(Cl)cc1	3	.	1	2	.	-18	i	0
CCC12C(=O)C(CC)(C(c3ccccc3)=C1c1ccccc1)[C@@H]1C(=O)N(c3ccc(C)cc3)C(=O)C12 (stereo not given in full)	92*	-5	-4	-13	1	.	i	22
Cc1cc(N(CCO)CCO)ccc1N=Nc1cc(F)ccc1F	-5	-15	33*	-3.8*	-4	26	i	22
COC(=O)CN1C(=O)C2(OCCCO2)c2ccccc21	1	-3	1	1	-2	-6	i	-2
CS(=O)(=O)N1CCCCC1c1cc(C(=O)NCc2ccc(F)cc2)no1 (stereo not given)	18	.	-1	1	.	-15	.	.
O=C(OCC(=O)N1CCc2ccccc21)c1ccc[nH]c1=O	7	-6	2	-3	-21	.	i	.
CCOC(=O)[C@H](CCc1ccccc1)N[C@@H](C)C(=O)N1[C@H](C(=O)O)C[C@@H]2CCC[C@@H]21	i	.	3	2	.	-12	i	-5
COc1ccccc1C(=O)COC(=O)c1cc([N+](=O)[O-])ccc1N1CCOCC1	16	.	4	0	.	-9	i	-6
Cc1nn(C)cc1S(=O)(=O)N1CCN(c2ccc(F)cc2)CC1	-3	1	1	-1	1	-14	i	-13
CC(Cc1c[nH]c2ccccc12)NC(=O)OCCCl (stereo not given)	3	-11	2	-2	-9	.	i	12
N/C(Cc1ccc([N+](=O)[O-])cc1)=N\OC(=O)c1ccc([N+](=O)[O-])cc1	.	-7	1	-1	-8	-11	i	3
N=c1n(CCCOc2ccc(F)cc2)c2ccccc2n1CC(N)=O	-31	-2	-1	2	2	-5	i	-6
COc1ccc(S(=O)(=O)CCC(=O)Nc2cccc(OC)c2)cc1	.	3	.	.	1	.	i	.
COc1ccc(Cl)c2c1[nH]c1nc(SCc3cccnc3)nnc12	-16	7	4	4	25	.	i	-5
Cc1ccc(S(=O)(=O)Nc2ncnc3ccccc23)cc1	0	-11	6	0	2	-7	.	-8
COc1ccc(OCC(=O)Nc2sc3c(c2C(=O)NCC2CCCO2)CCC3)cc1 (stereo not given)	.	-4	4	-4	1	-3	i	0
CCS(=O)(=O)N1CCC(NC(=O)c2ccco2)CC1	8	-10	-1	5	6	-18	i	-17
C#Cc1cccc(C(=O)N2CCCC(Nc3cccc(F)c3)C2)c1 (stereo not given)	45	2	-3	-3	-12	-15	i	-8
CCCC(=O)O[C@@H]1C[C@@H](C)N(C(=O)c2ccccc2)c2ccc(C)cc21	.	-4	-4	-8	-9	-6	i	7
COc1ccc(OC)c(/C=C/C(=O)c2ccc3c(c2)OCCO3)c1	-17	2	3	-6	4	-20	i	61
COC(=O)c1cc(C(=O)Nn2cnnc2)cc([N+](=O)[O-])c1	-7	2	1	2	2	-26	i	-17
C[C@]12CC[C@H](O)CC1=CCC1C2CC[C@@]2(C)C1CCC21OCCO1 (stereo not given in full)	-13	.	3	-4	.	16	.	21
CC(C)(C)NC(=O)NC(=O)COC(=O)Cc1c(F)cccc1Cl	-3	9	-2	2	2	-15	i	-14

Sorted by formula weight (high to low): 5 of the compounds above
SMILES	HIV Env fusion	eIF4H FP inh	MT1-MMP act inh	MT1-MMP act inh RFP	PABP FP inh	Yeast UUG start	Rce1 inhib	CSC inhib	others
COc1ccc(Cl)c2c1[nH]c1nc(SCc3cccnc3)nnc12	-16	7	4	4	25	.	i	-5
CCCC(=O)O[C@@H]1C[C@@H](C)N(C(=O)c2ccccc2)c2ccc(C)cc21	.	-4	-4	-8	-9	-6	i	7
Cc1ccc(S(=O)(=O)Nc2ncnc3ccccc23)cc1	0	-11	6	0	2	-7	.	-8
COC(=O)c1cc(C(=O)Nn2cnnc2)cc([N+](=O)[O-])c1	-7	2	1	2	2	-26	i	-17
CCS(=O)(=O)N1CCC(NC(=O)c2ccco2)CC1	8	-10	-1	5	6	-18	i	-17

The results go on:
SMILES	HIV Env fusion	eIF4H FP inh	MT1-MMP act inh	MT1-MMP act inh RFP	PABP FP inh	Yeast UUG start	Rce1 inhib	CSC inhib	others
c1cn2c(-c3ccoc3)cncc2n1	21	.	-2	-2	.	-7	.	.
O=S(=O)(c1ccccc1)[C@@]1(c2ccccc2)C[C@@H]2ON=C(c3cccc(Br)c3)[C@@H]2C1	79*	.	-4	-19	.	-12	i	30
COc1ccc(NC(=O)CN(C)CC(=O)N(CC(C)C)c2c(N)n(CC(C)C)c(=O)[nH]c2=O)cc1	.	.	-5	3	.	5	.	-16
CC(C)C(NC(=O)C12CC3CC(CC(C3)C1)C2)C(=O)NC1=NCCS1 (stereo not given)	.	2	.	.	6	.	i	-6
Cc1cc(C)c2nc(NC(=O)c3ccc4c(c3)OCO4)sc2c1	.	-11	.	.	1	.	i	-9
CCn1c(=O)c2cc(C(=O)N(C)c3ccccc3F)sc2c2ccccc21	-88	9	-1	-6	1	-26	i	55
CCC(C)NC(=O)CCc1nc2ccccc2n1-c1ccccc1 (stereo not given)	-5	-7	-4	-1	-3	-8	i	-7
Cc1ccc(-c2nc(N)sc2-c2ccc(C)cc2)cc1	5	-7	-9	-17	-8	.	i	.
Cc1nc2ccccc2n1CC(=O)NC(C)C1CC2CCC1C2 (stereo not given)	34	9	-12	-27	5	.	i	-11
O=C(O)c1cccc2[nH]c(C(F)(F)F)nc12	.	-8	3	3	18	-4	i	4
C[C@H](CO)N1C[C@H](C)[C@@H](CN(C)C(=O)NC2CCCCC2)Oc2ccc(NC(=O)C3CC3)cc2C1=O	4[16.7 µM]	.	0	5	.	9&-12	.	.
C=CC#CC1(O)CC(C)N(C)CC1C (stereo not given)	1	2	2	4	26	.	i	11
Cn1c(SCC(=O)N/N=C/c2cccs2)nc2ccccc21	4	6	2	4	-11	-16	i	0
Cc1cccc(NC(=O)COC(=O)[C@@H]2CCCN2C(=O)c2cccs2)c1	0	.	1	1	.	4	.	0
N#CCc1ccc(NS(=O)(=O)c2ccc(N3CCCC3=O)cc2)cc1	12	-6	3	-10	-3	-19	i	13
Cc1[nH]nc(S(=O)CC(=O)O)c1[N+](=O)[O-] (stereo not given)	-1	-6	2	-1	-12	.	i	-7
COc1cc(C(=O)Nc2ccc(N3CCCS3(=O)=O)cc2)c([N+](=O)[O-])cc1OC	-1	.	-1	0	.	-11	i	-1
Cc1cccn2c(=O)c(C=O)c(Cl)nc12	17	5	-7	7	8	.	i	-3
COC(=O)c1c(NC(=O)Cc2ccccc2)sc2c1C(C(=O)OC)CC2 (stereo not given)	4	-7	-1	-3	5	2	i	64
COc1ccc(NC(=O)ON=C2c3ccccc3-c3ccccc32)cc1	.	-2	-5	-2	6	-14	i	-16

Compound activity deposited in PubChem BioAssay by several laboratories.
